Compound activity (PubChem)
Rango-impB inh – qHTS Assay for Inhibitors of Rango (Ran-regulated importin-beta cargo) - Importin beta complex formation; Rango CFP/YFP FRET sensor + importin beta, 45 min; Potency, µM (highest dose often 92.2 µM), for the others: top-dose inhibition of complex formation; 0.031% of 340,000 active; Importin subunit beta-1 (Homo sapiens), Q14974; AID 540263, 2011; active = rising FRET ratio curve, often small or poorly fitted; inconclusive = mostly compound fluorescence or quenching in the first reads; inactive = flat curves in all reads;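 further: potency means the concentration at half of the fitted maximal effect; 0% = DMSO wells and 100% = buffer wells lacking importin beta; nearly all actives have a fitted effect of over 15% in size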
Target sequence (Q14974 whole entry, looked up): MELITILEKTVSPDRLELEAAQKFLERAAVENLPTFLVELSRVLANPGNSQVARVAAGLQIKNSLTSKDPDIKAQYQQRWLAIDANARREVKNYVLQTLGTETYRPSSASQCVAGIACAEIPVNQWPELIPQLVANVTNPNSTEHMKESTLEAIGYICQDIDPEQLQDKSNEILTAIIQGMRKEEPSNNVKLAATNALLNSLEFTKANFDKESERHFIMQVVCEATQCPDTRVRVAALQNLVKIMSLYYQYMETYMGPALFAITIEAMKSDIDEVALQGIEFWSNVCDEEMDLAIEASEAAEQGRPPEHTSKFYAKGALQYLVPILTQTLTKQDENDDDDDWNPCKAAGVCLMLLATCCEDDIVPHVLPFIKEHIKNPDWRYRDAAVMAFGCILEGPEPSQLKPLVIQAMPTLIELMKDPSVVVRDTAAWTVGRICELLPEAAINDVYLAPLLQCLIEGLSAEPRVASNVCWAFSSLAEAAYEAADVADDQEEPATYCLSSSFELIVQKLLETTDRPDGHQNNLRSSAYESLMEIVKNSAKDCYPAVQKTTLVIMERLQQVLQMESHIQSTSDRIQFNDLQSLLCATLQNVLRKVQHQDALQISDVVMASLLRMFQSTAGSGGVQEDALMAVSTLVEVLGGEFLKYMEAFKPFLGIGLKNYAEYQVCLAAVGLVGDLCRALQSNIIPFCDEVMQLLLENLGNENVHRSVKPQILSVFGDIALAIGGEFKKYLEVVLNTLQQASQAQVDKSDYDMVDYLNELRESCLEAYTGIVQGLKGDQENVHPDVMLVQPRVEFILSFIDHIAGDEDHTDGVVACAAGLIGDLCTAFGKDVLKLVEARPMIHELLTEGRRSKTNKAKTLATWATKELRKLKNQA
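Inhibition scored from the CFP 486 nm/YFP 530 nm FRET ratio 45 min after adding 0.125 microM importin beta to 50 nM Rango biosensor preincubated 5 min with compound (room temperature, PBS with DTT, Tween-20, BSA). No-importin wells as positive control.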
miR-21 reporter – qHTS Assay for Modulators of miRNAs and/orActivators of miR-21 | 340,000 tested, under 10 active | AID 2288, 2010 | HeLa miR-21 FLuc reporter, luciferase, 48 h | Potency, µM (top dose mostly 38.3 µM), inactives show top-dose reporter change, positive = more light; active = well fitted rising curve with a large enough effect; inconclusive = small, poorly fitted or top-dose-only effect; inactive = no such curve, though single readings can be large or run the other way;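 further: % of control where 0% means no effect; miR-21 action dims this reporter so a rising signal means less miR-21 action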
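Luminescence from a firefly luciferase reporter carrying a miR-21 binding site downstream, stably expressed under a CMV promoter in HeLa cells that make miR-21 endogenously, reports miRNA modulation after 48 h compound exposure up to approximately 40uM final.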
Rango dissoc inh – qHTS Assay for Inhibitors of RanGTP induced Rango (Ran-regulated importin-beta cargo) - Importin beta complex dissociation | AID 540253, 2011 | 0.071% of 340,000 active | Potency, µM (titrated, usually from 46.1 µM), without a hit: at the top dose activity change, negative = inhibition | Biochemical FRET Rango-importin beta, RanGTP-induced dissociation; active means falling FRET ratio curve, often poorly fitted, with flat reads before Ran was added; inconclusive means other falling curves, or compound fluorescence or quenching; inactive means flat or rising ratio curve;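 further: potency means the concentration at half of the fitted maximal effect; % of control where 0% means no effect; nearly all actives have a fitted effect of over 45% in size; -100% = wells without RanGTP and RCC1; the record marks most hits as doubtful in a second field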
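Two FRET readings bracket the reaction: one 5 min after compound meets Rango–importin beta, another 45 min after RanGTP-RCC1 (0.6 uM Ran, 0.2 uM RCC1, 2 mM GTP) is added. Only the second defines inhibition.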
GLA inh pH 4.5 – qHTS Assay for Inhibitors of Human alpha-Galactosidase at pH 4.5. activity change, negative = inhibition, % at 105 µM. 230,000 tested, under 10 active. purified enzyme, 4-MU-alpha-Gal fluorescence, pH 4.5; inconclusive = small, poorly fitted or top-dose-only inhibition, or a rising curve; inactive = flat fitted curve, though single readings scatter; no compound was filed as active;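 further: 0% = full activity with enzyme and -100% = basal without enzyme; dose as in the result columns while the protocol names 77 µM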
* = called active by the depositor; ? = inconclusive; nt = not tested or not shown; & = joins results of further samples. This is a subset; the hit share may differ from the screen's.

SMILES	Rango-impB inh	miR-21 reporter	Rango dissoc inh	GLA inh pH 4.5
COc1cccc(OCC(=O)Nc2cc(Cl)ccc2Oc2ccccc2)c1	-3.3%	-4%	-10%	4
COc1ccc2c(c1)C=C(CN1CCN(C3CCCC3)C(CCO)C1)CO2 (stereo not given)	0.7%	-1%	0%	9
CC1=CC(C)C2(COC(c3ccc[n+](C)c3)OC2)C(C)C1 (stereo not given)	6.0%	15%	23%	-6
COC(=O)Nc1nc2ccc(-c3n[nH]c(=O)c4ccccc34)cc2[nH]1	-0.5%	2%	1%	0
COc1ccc(S(=O)(=O)N2CCOCC2)cc1NC(=O)COC(=O)C1CC2CCCC(C1)C2=O (stereo not given)	-0.3%	0%	?	nt
Clc1ccc2nc(CSc3nnc(-c4c[nH]c5ccccc45)o3)cn2c1	-0.4%	nt	-9%	nt
O=C(N=C1SC2CS(=O)(=O)CC2N1Cc1ccc(Cl)cc1)C1CCCO1 (stereo not given)	-5.3%	-2%	-4%	nt
CC(Sc1nnc(NC2CCCCC2)s1)C(=O)N1CCOCC1 (stereo not given)	2.1%	nt	-9%	nt
COc1cc(CNCc2ccccn2)ccc1OCc1ccc(Cl)c(Cl)c1	2.1%	-43%	16%	-8
O=C(NC1CCCC1)c1noc2c1CCCCC2	-0.8%	-46%	-3%	-5
CS(=O)(=O)N1CCN(C(=O)c2c(F)cccc2F)CC1	-3.3%	-3%	2%	-2
COc1ccc(C2NC(=O)NC(O)(C(F)(F)F)C2C(=O)c2ccc(F)cc2)cc1 (stereo not given)	1.9%	-4%	-10%	-2
CCN(CC)CC(=O)Nc1c(C)cccc1C	0.3%&-1.2%&0.0%	-2%&-5%	-3%&0%&7%	0&-7&1&-14
Cc1ccc2c(COC(=O)c3ccc(NC(=O)CC#N)cc3)cc(=O)oc2c1C	2.1%	-1%	19%	nt
Cc1ccc(NC(=O)C2COc3ccccc3O2)cc1S(=O)(=O)N1CCOCC1 (stereo not given)	-1.4%	nt	1%	nt
C=C(C)CN(Cc1ccccc1)C(=S)Nc1ccccc1	-0.4%	3%	7%	nt
O=C(NCc1ccc(Cl)cc1)c1ccc(Cl)cc1[N+](=O)[O-]	0.7%	-5%	7%	7
CC(=O)NCC(=O)N1CCCC(C(=O)c2ccc(-c3ccccc3)c(F)c2)C1 (stereo not given)	1.9%	-7%	18%	2
COc1ccc(CNC(=O)COC(=O)CC2CCCC2)cc1	-1.1%	5%	0%	-2
CC1CN(CCC(=O)Nc2ccc3c(c2)OCO3)CC(C)O1 (stereo not given)	-3.8%	-7%	0%	-1
C=CCOC(=O)/C(=C\c1ccc(OC)cc1)NC(=O)c1ccco1	-0.7%	-5%	2%	0
CCc1nnc(NC(=O)NCN2C(=O)C3C4C=CC(C4)C3C2=O)s1 (stereo not given)	0.6%	-2%	2%	0
COCCOC(=O)C1=C(C)N(Cc2ccccc2)C(=O)NC1c1ccc(OC)cc1 (stereo not given)	0.7%	-2%	-2%	3
COc1cccc(CNC(=O)Cc2ccc(NC3=NC4CS(=O)(=O)CC4S3)cc2)c1 (stereo not given)	2.8%	-1%	-20%	nt
O=C(CCCn1c(=O)[nH]c2cc(Cl)ccc2c1=O)NCCN1CCN(c2ccccc2)CC1	-0.9%	-13%	-17%	1
Cc1ccc2c(Cl)cc(Cl)c(OCc3c(C)noc3C)c2n1	0.5%	-1%	?	0
CC1=C(C(=O)N2CCc3ccccc32)C2(CCC(C)CC2)OC1=O (stereo not given)	-4.6%	-2%	-8%	2
CC(=O)c1ccc(S(=O)(=O)N(C)CC(=O)Nc2ccc(C)cc2)cc1	5.1%	nt	-1%	nt
O=C(Cc1ccc(Cl)cc1)Nc1ccc(C(=O)N2CCOCC2)cc1	-2.8%	-10%	-8%	4
COc1ccc(CNc2nc3c(c(=O)[nH]c(=O)n3C)n2Cc2ccccc2)cc1	-0.7%	-7%	5%	nt
O=C(Nc1ccc(S(=O)(=O)N2CCCCC2)cc1)C1CCCCC1	0.7%	-6%	-9%	nt
CC(C)(C)OC(=O)N1CCN(C(=O)c2cccnc2Cl)CC1	0.7%	-1%	-1%	-5
COc1ccc(CCNC(=O)c2ccc(NC(=O)CC3SC(N4CCCCC4)=NC3=O)cc2)cc1OC (stereo not given)	-3.1%	nt	20%	nt
CCOC(=O)C1CCN(C(c2cc3ccc(C)cc3[nH]c2=O)c2nnnn2C2CCCCC2)CC1 (stereo not given)	-0.1%	-11%	-12%	8
CCCC1=C(C(=O)OCC)C(c2ccccc2OCC)NC(=O)N1C (stereo not given)	-2.6%	0%	-1%	7
O=C(Oc1ccccc1C(=O)Oc1ccccc1)c1ccco1	2.8%	-2%	4%	7
CSCCC(NS(=O)(=O)c1ccc(Cl)cc1)C(=O)N1CCN(c2ccccc2)CC1 (stereo not given)	7.4%	nt	5%	nt
COc1ccc(NC(=O)CSc2nnc(Cc3cccn3C)n2CCc2ccccc2)cc1OC	-2.4%	-4%	11%	3
COc1ccccc1CNC(=O)CSc1ccc(C)cc1	-0.2%	-24%	9%	10
COC(=O)C1CCN(S(=O)(=O)c2ccc(OC)cc2)CC1	4.2%	-1%	-2%	3
COc1ccc(Cl)cc1NS(=O)(=O)c1cccc(C(=O)NCCCN2CCCC2=O)c1	-1.7%	0%	-1%	nt
CCNC(=O)c1c(NC(=O)C2COc3ccccc3O2)sc2c1CCCC2 (stereo not given)	-2.3%	-8%	7%	11
Cc1ccc(Cn2ncc3c(N4CCN(C5CCCC5)CC4)ncnc32)cc1	0.7%	-4%	31%	2
CCCc1cc(C(=O)Nc2cccc(Cl)c2)no1	?	-32%	4%	1
Cc1nc(Oc2ccccc2)c2ccccc2n1	0.8%	-5%	-5%	-16
O=C(CSc1ccc2ccccc2c1)NCCCN1CCCC1=O	-2.3%	3%	?	-13
O=C(NCCC1=CCCCC1)C1CCN(C(=O)Cc2ccccc2)CC1	-1.7%	-1%	-13%	0
CC(=O)Nc1nc(N)n(-c2ccccc2)n1	0.1%	-4%	0%	13
O=C(NCc1ccc(F)cc1)C1CCC(CNc2c(N3CCCCC3)c(=O)c2=O)CC1 (stereo not given)	-4.8%	-4%	-10%	6
O=C(CSc1ncnc2c1nnn2Cc1ccc(F)cc1)NC1CCCCC1	0.6%	-2%	-10%	1
COc1ccccc1-c1cc(C(=O)Nc2c(C)n(C)n(-c3ccccc3)c2=O)no1	9.7%	-1%	3%	4
O=C(NNC1=C(C(=O)C(F)(F)F)CCC1)c1ccccc1O	0.1%	-15%	-12%	0
O=Cc1cn(CC(=O)Nc2ccccc2)c2ccccc12	1.6%	4%	-15%	nt
O=C(N/N=C/c1ccc(O)c2ccccc12)c1cccnc1	2.5%	2%	9%	nt
Cc1ccc(C)c(-n2cc[nH]c2=S)c1	-0.6%	-1%	0%	-3
COc1ccc(C2=NN(C(=O)c3cccs3)C(c3ccc(OC)cc3)C2)cc1 (stereo not given)	1.3%	-13%	-26%	-6
CCn1c(SCC(=O)Nc2nc3ccc(OC)cc3s2)nnc1-c1ccoc1C	0.5%	-25%	0%	3
O=C(NCCCN1CCOCC1)c1ccc(CS(=O)(=O)c2ccc(Br)cc2)o1	-1.7%	-4%	2%	5
CC12CN3CC(C)(CN(C1)C3c1ccc([N+](=O)[O-])o1)C2=O (stereo not given)	-1.4%	0%	-15%	-7
COc1cccc(CC(=O)OCC(=O)NNC(=O)c2ccc([N+](=O)[O-])cc2)c1	-0.4%	1%	-4%	nt

New compounds follow.
SMILES	Rango-impB inh	miR-21 reporter	Rango dissoc inh	GLA inh pH 4.5
CCOc1ccc(CCNC(=O)c2ccc3nc(N4CCOCC4)sc3c2)cc1OCC	0.1%	-5%	-6%	2
Cc1cc(-c2ccccc2)nn1-c1nc2c(c(=O)[nH]c(=O)n2C)n1C	-2.5%	-26%	11%	-2
Cc1c(Cl)ccc2sc(NC(=O)c3ccco3)nc12	4.3%	-30%	1%	nt
COc1cc(C2C3=C(CCCC3=O)OC3=C2C(=O)CCC3)ccc1OCC(=O)Nc1ccccc1	11%	-4%	10%	nt
COc1ccc(Oc2ccc(C(F)(F)F)cc2NC(=O)c2ccc(OC)cc2)cc1	1.2%	5%	23%	-5
COC(=O)c1[nH]c2ccccc2c1NC(=O)C(C)N1CC(C)OC(C)C1 (stereo not given)	-0.3%	-2%	24%	0
COc1cccc(CN2CC(C(=O)NC3CCCCCC3)CCC2=O)c1 (stereo not given)	1.8%	0%	26%	nt
S=C(NCC1CCCO1)N1CCc2ccccc2C1 (stereo not given)	5.8%	-18%	15%	nt
CCc1ccc(/C=N/NC(=S)NCCc2ccccc2)cc1	-0.1%	0%	-10%	1
CCN(CC)C(=O)C1=C(C)Nc2nc3ccccc3n2C1c1cccc(OC)c1 (stereo not given)	-1.9%	4%&0%	-4%	11
COc1ccc(OC)c(/C=N/NC(=O)c2cc[n+](Cc3ccccc3)cc2)c1	-1.8%	-5%	0%	-3
CSc1ccc(Cl)c(C(=O)Nc2ccc(C)cn2)c1	0.3%	4%	-3%	0
O=C(NCC(c1ccco1)N1CCc2ccccc2C1)c1ccc(Cl)c([N+](=O)[O-])c1 (stereo not given)	-2.1%	nt	15%	nt
O=C(Cn1c(C(F)(F)F)nc2ccccc21)c1ccc(F)cc1	-0.5%	-1%	1%	3
c1ccc(-n2c(SCC3CCCCO3)nnc2-c2cccs2)cc1 (stereo not given)	3.6%	-3%	1%	3
CCN(CC)C(=O)CSc1nc2sc3c(c2c(=O)n1CCCOC)CCC3	-2.2%	-2%	20%	nt
CC1=CC(=O)O[C@@H]1[C@@]1(C)C[C@H]2OC(=O)C[C@H]3[C@@H](C)C(=O)C(O)=C1[C@@]23CO	0.0%	nt	0%	nt
S=C(NCc1ccccc1)NCC1COc2ccccc2O1 (stereo not given)	-0.1%	-9%	9%	-4
COC(=O)c1sc(S(=O)(=O)N2CCCCC2)c(C(=O)OC)c1C	0.4%	-9%	1%	4
O=C(O)C1CC=CCC1C(=O)NNc1c(Cl)cc(Cl)cc1Cl (stereo not given)	-0.1%	0%	0%	0
Cc1ccc(S(=O)(=O)NC2(C(F)(F)F)NC(=O)N(Cc3ccccc3)C2=O)cc1 (stereo not given)	-0.2%	0%	-20%	nt
COc1ccc(C(=O)OCC(=O)NC(C)CCc2ccccc2)c(OC)c1 (stereo not given)	0.0%	-11%	?	nt
CCCCCCCOC(=O)C1=C(C)Nc2ncnn2C1c1cccs1 (stereo not given)	0.2%	7%	-4%	4
CCOC(=O)c1cnc2c(C)cccc2c1Nc1ccc(N2CCOCC2)cc1	nt	-2%	nt	-8
N=C1C=CC(=C(c2ccc(N)cc2)c2ccc(N)cc2)C=C1	?	nt	-16%	nt
COC(c1ccccc1)c1nnc(CCC(=O)NC2C3CC4CC(C3)CC2C4)o1 (stereo not given)	-2.4%	-7%	8%	1
Cc1ccc(NC(=O)[C@H](NC(=O)[C@@H]2Cc3ccccc3CN2)c2ccccc2)cc1C	0.2%	-16%	1%	nt
COc1ccc(/C=N/NC(=O)c2c(-c3ccccc3)noc2C)cc1	1.5%	1%	2%	8

Seven consecutive records from above, quoted:
SMILES	Rango-impB inh	miR-21 reporter	Rango dissoc inh	GLA inh pH 4.5
COc1ccc(C(=O)OCC(=O)NC(C)CCc2ccccc2)c(OC)c1 (stereo not given)	0.0%	-11%	?	nt
CCCCCCCOC(=O)C1=C(C)Nc2ncnn2C1c1cccs1 (stereo not given)	0.2%	7%	-4%	4
CCOC(=O)c1cnc2c(C)cccc2c1Nc1ccc(N2CCOCC2)cc1	nt	-2%	nt	-8
N=C1C=CC(=C(c2ccc(N)cc2)c2ccc(N)cc2)C=C1	?	nt	-16%	nt
COC(c1ccccc1)c1nnc(CCC(=O)NC2C3CC4CC(C3)CC2C4)o1 (stereo not given)	-2.4%	-7%	8%	1
Cc1ccc(NC(=O)[C@H](NC(=O)[C@@H]2Cc3ccccc3CN2)c2ccccc2)cc1C	0.2%	-16%	1%	nt
COc1ccc(/C=N/NC(=O)c2c(-c3ccccc3)noc2C)cc1	1.5%	1%	2%	8
